Screens as filed in PubChem BioAssay.
eIF4H FP inh: inhibitors of RNA binding by human eIF4H | Q15056 | eIF4H fluorescence polarization binding assay | inhibition, % at 35 µM | actives 0.94% (n = 290,000) | AID 2012;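 active = 50% or more with normal probe brightness, or confirmed in later tests; inconclusive = above 50% with abnormal brightness, or retests that disagree; inactive = below 50% or failed in later tests; about a fifth of its hits are not listed in these tables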;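 note: calls also rest on retests at 20 µM and on dose response follow-up; 0% = protein and probe with vehicle and 100% = probe without protein; strong numbers were not always called active; many hits fall short of the cut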
PABP polyA inh: blocks human PABP binding to poly(A) RNA; fluorescence polarization; inhibition, % at 35 µM; actives 1% (n = 290,000); AID 2014;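 active = 50% or more with normal probe brightness, or confirmed in later tests; inconclusive = above 50% with abnormal brightness, or retests that disagree; inactive = below 50% or failed in later tests; about a fifth of its hits are not listed in these tables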;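 note: calls also rest on retests at 20 µM and on dose response follow-up; controls were probe without protein and protein plus probe with vehicle; some compounds called inactive have numbers as strong as hits; many hits fall short of the cut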
MT1-MMP act inh: blocks activation of human MT1-MMP; HT1080 RFP-PRO-GFP cells, GFP/RFP ratio fluorescence, overnight; percent of plate control window, DMSO zero; actives 0.061% (n = 360,000); GFP/RFP ratio change, % at 20 µM; AID 651647;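 active = GFP/RFP ratio change of at least 30% with cell ATP level not reduced by more than half and red fluorescence within 50% of control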; note: strong numbers were not always called active
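Material: RFP-PRO-GFP reporter HT1080 cells. Dosing: single-point 20 µM compound, 1% DMSO. Controls: DMSO and RFP-L50D-GFP cell wells. Timing: cells overnight before dosing, compound overnight, 37 °C, 5% CO2. Measure: GFP/RFP fluorescence ratio.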
Yeast UUG start: modulators of start codon recognition fidelity in yeast; S. cerevisiae UUG-firefly luciferase reporter, luminescence/redox ratio; activity score, % at 18.7 µM; actives 0.13% (n = 350,000); AID 602363;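 active = replicate mean at a twofold rise or more, about +100% in these data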;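 note: firefly luciferase made from a UUG start codon reports start codon fidelity; reporter light over untreated wells divided by growth signal over untreated wells; some hits fall short of that in this replicate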
CSC inhib: blocks cancer stem cells. inhibition, % at 7.5 µM. actives 1.1% (n = 300,000). cancer stem cell-like cells viability, luminescence. AID 2717;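 active = mean at 75% or more and at least half the replicates too; inconclusive = mean and replicates disagree; tested in HMLE shEcad cells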;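 note: 0% = median of negative and 100% = median of positive control wells; the first replicate is given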
Rce1 inh: inhibitors of yeast Ras-converting enzyme. Q03530. yeast membranes, quenched prenylated peptide cleavage fluorescence. calls only. actives 0.27% (n = 290,000);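 active = fall in fluorescence gain of 50% or more versus controls, with final raw signal at or below 3038400; inconclusive = same 50% fall but final raw signal above 3038400; inactive = fall in fluorescence gain under 50%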;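 note: plate controls were neutral control wells for no effect and wells lacking membranes for full effect; tested at 10 µM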
Target sequence (Q03530 whole entry, looked up): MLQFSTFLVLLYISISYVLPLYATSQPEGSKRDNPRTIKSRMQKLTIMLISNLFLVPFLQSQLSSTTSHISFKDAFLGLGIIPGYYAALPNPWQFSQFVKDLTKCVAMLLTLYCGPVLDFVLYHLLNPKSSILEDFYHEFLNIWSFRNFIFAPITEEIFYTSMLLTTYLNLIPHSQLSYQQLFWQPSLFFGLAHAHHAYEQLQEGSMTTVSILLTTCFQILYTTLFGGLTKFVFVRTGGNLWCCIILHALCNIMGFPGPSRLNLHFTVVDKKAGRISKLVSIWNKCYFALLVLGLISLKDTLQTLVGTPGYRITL
Env fusion inh: inhibitors of HIV Env-mediated cell fusion | AID 651610 | inhibition, % at 12.3 µM | actives 1.1% (n = 360,000) | HeLa-JRFL Env/CEM21 cell fusion, luciferase;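 active = mean replicate inhibition score of at least 50 and every replicate individually at or above 50; inconclusive = only one of the two criteria met; inactive = mean below 50 and not all replicates reaching 50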;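 note: 0% = plate neutral controls and 100% = maraviroc near 300 nM; one replicate is shown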
PABP polyA inh retest: recorded beside PABP polyA inh, whose call it bears; inhibition, %; compound at 20 µM; confirmation repeats;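 mean of two retest wells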
MT1-MMP act inh RFP: further read-out of MT1-MMP act inh, marked with its call; RFP signal change, %; measured here: RFP expression control read;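 0 = vehicle wells; hits needed this value within 50% of zero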
* marks the source's active call; other numbers are inactive results; i = inactive; ? = inconclusive; / = no result given. Not all compounds are listed (hit frequency here may not be typical).

SMILES | eIF4H FP inh | PABP polyA inh | MT1-MMP act inh | MT1-MMP act inh RFP | Yeast UUG start | CSC inhib | Rce1 inh | Env fusion inh | others
COc1ccc(OC)c(S(=O)(=O)N/N=C\c2cn(CC(N)=O)c3ccccc23)c1 | 2.5 | -7.1 | -3.3 | -0.6 | -0.9 | 16.9 | i | 10.0
Cc1c(CNCCc2ccccc2Cl)c(C(=O)O)c(C)n1-c1ccccc1 | -4.6 | -14.7 | -0.2 | 4.1 | / | -4.3 | i | 57.0*
O=C(NCCCn1ccnc1)c1ccc(S(=O)(=O)N2CCOCC2)cc1 | -12.6 | 1.0 | 6.8 | 0.0 | -20.7 | -4.1 | i | -9.9
CC(=O)CCc1ccc(OCCCOc2cccc3cccnc23)cc1 | -8.8 | -6.0 | 4.3 | -8.2 | 6.9 | 0.0 | i | -1.7
Cc1sc2ncnc(NCC(O)c3ccccc3)c2c1C (centres undefined) | 2.5 | -10.9 | -9.0 | -31.6 | -11.2 | -17.3 | i | 19.4
Cn1ccnc1SCCNC(=O)CCc1nnc(CCCCc2ccccc2)o1 | 12.8 | -12.6 | -0.5 | 0.7 | -15.9 | -9.8 | i | 13.3
COc1ccc(-c2nc(CN3CCCCC3c3nccn3C)c(C)o2)c(C)c1C (centres undefined) | 1.3 | -5.4 | -2.9 | -3.2 | -20.8 | 7.2 | i | 24.3
O=C(NCc1ccccn1)c1ccccc1OCc1ccc(F)cc1 | / | / | 3.0 | -1.1 | / | -3.7 | i | 2.6
COc1cc(NC(=O)c2cc(S(=O)(=O)N3CCCCC3)c[nH]2)cc(OC)c1 | -3.0 | -10.8 | 3.3 | 3.6 | 1.0 | -9.9 | i | -13.4
COc1ccc(NC(=S)N2CCC(NC(=O)c3cccc(C)c3)CC2)cc1 | 0.1 | -9.9 | 3.7 | 5.5 | -36.8 | 2.8 | i | -4.6
COC(=O)c1c(C)[nH]c(C(=O)OC(C)C(=O)N(C)C2CCCCC2)c1C (centres undefined) | / | / | 2.4 | -3.0 | -9.8 | -1.1 | i | ?
COc1ccc(NC(=O)CSc2nccn2-c2ccccc2)cc1 | 5.7 | -14.5 | -0.8 | -4.3 | -24.7 | -9.8 | i | /
COc1ccc(C2/C=C\CN(C(=O)Nc3ccc(C(F)(F)F)cc3)CC(=O)N2Cc2ccc(F)cc2)cc1 (centres undefined) | 1.5 | 6.1 | -1.1 | -0.8 | -11.8 | -5.5 | i | /
Cc1cc(C)c(NC(=O)/C=C\C(=O)O)c(Cl)c1 | 0.0 | -8.0 | 3.4 | 7.2 | -11.6 | -4.9 | i | 1.3
O=C1CC(/C=C/c2cccnc2)=Nc2ccccc2N1 | -6.1 | 4.2 | -6.6 | -6.7 | -7.8 | -0.6 | i | 15.6
N#CCOC(=O)/C=C/c1ccc2c(c1)OCO2 | -7.0 | -9.8 | 1.7 | 2.0 | / | 0.6 | i | 3.8
C=CCn1c(CNC(=O)c2ccco2)nnc1SCC(=O)N1c2ccccc2Sc2ccccc21 | 8.7 | -5.5 | -7.4 | 3.4 | -10.5 | -16.0 | i | /
Cc1cccc2cc(CN(C(=O)c3cccc([N+](=O)[O-])c3)C(C)C)c(=O)[nH]c12 | 15.3 | 12.0 | -6.8 | -6.7 | -9.7 | -13.0 | i | 13.0
O=C(NCc1ccccc1)c1cccc(OCC(=O)N2CCN(C(=O)c3ccco3)CC2)c1 | -5.6 | 0.0 | 1.7 | 2.4 | 60.7 | -5.3 | i | -50.5
CC(C)(C)c1n[nH]c(=S)n(N)c1=O | -12.5 | -3.0 | 3.9 | 6.5 | -13.9 | -10.0 | i | -126.8

Next part; it opens with the 2 that closed the last part.
SMILES | eIF4H FP inh | PABP polyA inh | MT1-MMP act inh | MT1-MMP act inh RFP | Yeast UUG start | CSC inhib | Rce1 inh | Env fusion inh | others
O=C(NCc1ccccc1)c1cccc(OCC(=O)N2CCN(C(=O)c3ccco3)CC2)c1 | -5.6 | 0.0 | 1.7 | 2.4 | 60.7 | -5.3 | i | -50.5
CC(C)(C)c1n[nH]c(=S)n(N)c1=O | -12.5 | -3.0 | 3.9 | 6.5 | -13.9 | -10.0 | i | -126.8
S=C(NCCCN1CCOCC1)N1CCN(c2ccccc2)CC1 | -3.0 | 1.8 | 1.6 | -0.8 | -18.9 | -9.6 | i | 1.6
CC1CCN(CCCNC(=O)CN2C(=O)CSc3ccc(S(=O)(=O)N4CCOCC4)cc32)CC1 | / | / | -1.0 | -0.3 | -6.3 | -0.9 | i | -3.9
O=C(NNC(=O)c1ccccc1-n1cccc1)c1cccnc1 | / | / | -2.7 | -0.9 | -32.5 | / | / | 31.9
COc1ccc2c(CC(=O)N3CCN(S(=O)(=O)c4cccs4)CC3)coc2c1 | 4.2 | 0.0 | 0.5 | 6.8 | -11.3 | -8.7 | i | -40.8
CC(CCc1ccccc1)NC(=O)c1cccs1 (centres undefined) | -6.6 | -4.9 | 15.2 | -1.0 | -0.3 | -2.7 | i | /
Cn1ncc2c(Nc3cccc(Cl)c3)nc(Nc3cccc(Cl)c3)nc21 | -0.4 | -0.9 | -7.6 | -11.2 | 21.0 | 115.4* | i | 13.0
Cc1cccc(C(=O)N2CCCC(c3nc(-c4ccc(C)o4)no3)C2)c1 (centres undefined) | -5.2 | 6.4 | -0.9 | 1.7 | -3.1 | -6.2 | / | -45.0
CCCn1c(C)cc(C(=O)Cn2nnc3ccccc3c2=O)c1C | -6.6 | 9.1 | -1.4 | 1.2 | / | -21.0 | i | -15.8
CC(C)(C)c1ccc(OCC(=O)N2CCN(c3ncccn3)CC2)cc1 | -20.0 | 2.3 | 2.1 | 2.6 | -7.3 | -9.0 | i | /
CCCCC(CC)CNC(=O)CC1Nc2c3ccccc3nc(=S)n2C1=O (centres undefined) | 3.2 | 1.0 | 2.8 | 0.0 | / | / | i | 6.2
CS(=O)(=O)N(CC(=O)N1CCc2ccccc2C1)c1ccccc1F | / | / | 0.5 | 7.2 | -16.4 | -8.4 | i | 4.4
CC(C)CSC1=NSC2=NC(=O)/C(=C\c3ccccc3)C(=N)N12 | -9.8 | -4.8 | -20.9 | -11.3 | -2.6 | 0.1 | i | -7.7
CC(=O)Nc1ccc(S(=O)(=O)N2CCN(C(=O)c3ncoc3-c3ccc(C)cc3)CC2)cc1 | -5.7 | -4.8 | -3.6 | -2.7 | 6.8 | 5.3 | i | 0.0
O=C1[C@@H]2Cc3c([nH]c4ccccc34)CN2C(=O)CN1CCO | 2.5 | 6.6 | -7.6 | -1.4 | 4.5 | -13.5 | i | 1.9
Cc1cccc(C(=O)Oc2ccc(/C=N/NC(=O)c3ccncc3)cc2)c1 | -6.7 | -3.3 | -0.3 | 5.0 | / | 38.9 | / | 10.5
CCn1c(SCC(=O)Nc2ccc(N3CCOCC3)cc2)nnc1-c1ccco1 | / | / | 1.0 | 0.4 | -19.5 | -18.5 | i | 18.9
CN=C1SC(CC(=O)Nc2cccc(Cl)c2Cl)C(=O)N1C (centres undefined) | -4.3 | 4.0 | -5.7 | 1.2 | 5.5 | -0.2 | i | /
O=C(CNC(=O)c1cccs1)Nc1cccc(S(=O)(=O)N2CCOCC2)c1 | / | / | 0.5 | -1.5 | -10.1 | / | / | 61.0*
O=C(NCCN1CCN(C(=O)c2cccc(Br)c2)CC1)C(=O)Nc1ccc(Br)cc1 | 4.8 | 17.4 | 0.5 | -8.9 | 10.4 | -5.3 | i | 10.4
O=C(C1CC1)N(Cc1ccco1)c1nc(-c2ccccc2)cs1 | 0.0 | 1.3 | -1.3 | -4.5 | -24.1 | 24.7 | i | 0.9
Cc1ccn2c(C(=O)CSc3ccc(Cl)cc3Cl)c(C)nc2c1 | -1.4 | 0.7 | 3.1 | 4.5 | -4.0 | -8.9 | i | /
CCCCOC(=O)NCN1C(=O)C2C3C=CC(C3)C2C1=O (centres undefined) | -3.0 | -12.7 | 1.5 | -0.5 | -3.7 | 4.5 | i | /
O=C(Nc1cc(Cl)cc(Cl)c1)N1CCCC1 | 7.3 | -8.9 | 3.0 | -1.2 | -7.5 | 20.4 | i | 7.6
COc1cc(OC)cc(C(=O)N2CCN(C(=O)c3cccc(F)c3)CC2)c1 | -1.0 | 1.8 | 0.5 | 5.0 | -15.2 | 13.9 | i | /
NC(=O)c1cccc(NC(=O)CCCCC(=O)Nc2cccc(C(N)=O)c2)c1 | -5.9 | 4.0 | -4.8 | 0.4 | 2.1 | -14.0 | i | 4.1
Cc1ccc(OCC(=O)N2CCN(S(=O)(=O)c3ccccc3)CC2)c([N+](=O)[O-])n1 | ? | 104.0* | 4.5 | 3.0 | / | 2.1 | i | 4.2 | PABP polyA inh retest=106.8*
O=C(CSc1nnc(CNC(=O)c2cccc(C(F)(F)F)c2)o1)NCc1ccco1 | 0.6 | -8.3 | -2.3 | 3.3 | -0.2 | -1.8 | i | -8.5
CS(=O)(=O)c1ccc(SCC(=O)NC2CCS(=O)(=O)C2)c([N+](=O)[O-])c1 (centres undefined) | -10.9 | -35.0 | -0.1 | 2.1 | / | -1.3 | i | 18.2
CCN(CC)CCNC(=O)c1ccc(NS(=O)(=O)c2ccc3c(c2)OCCO3)cc1 | 31.0 | -4.0 | 2.0 | -4.8 | / | -16.5 | i | 7.6
Nc1ccn([C@@H]2O[C@H](CNCc3ccc(N4CCNCC4)cc3)[C@@H](O)[C@H]2O)c(=O)n1 | / | / | -0.7 | 3.5 | -21.2 | / | / | -0.4
COc1cccc(SCC2(O)CCN(C(=O)c3ccc(Cl)cc3)CC2)c1 | -0.4 | -10.2 | 0.7 | 1.2 | 0.5 | 2.4 | i | 11.6
O=C(Nc1ccc(N2CCCCC2)c(Cl)c1)c1ncn[nH]1 | -9.3 | -4.5 | 5.2 | 8.1 | / | -6.4 | i | /
CCN(c1ccccc1)S(=O)(=O)c1ccc(OC)c(NC(=O)C2CC2)c1 | / | / | -0.8 | -0.7 | -0.1 | 21.1 | / | /
CCOC(=O)c1[nH]c2cc3c(cc2c1NC(=O)CN1CCc2ccccc2C1)OCO3 | 6.5 | -2.0 | -3.0 | -12.6 | 2.8 | 29.1 | i | /
O=C(O)Cn1nc(-c2ccccc2)ccc1=O | -10.0 | 4.8 | 0.1 | 2.1 | -1.9 | -11.6 | i | -11.5
O=S(=O)(c1ccc(SCCOc2cccc(Br)c2)nc1)N1CCCC1 | / | / | -2.7 | -4.1 | -6.4 | / | / | 9.5
COCCCn1c(SCC(=O)Nc2oc(C)c3c(C)n[nH]c(=O)c23)nc2sc3c(c2c1=O)CCC3 | / | / | 2.1 | 3.2 | 2.5 | -7.3 | i | 8.6
CCN(CC)C(=O)c1c(-c2ccccc2)oc2ccc(OC)cc12 | 2.9 | 1.0 | -3.8 | 1.2 | / | -3.3 | i | -75.2
C/C(=N\NC(=O)c1cc(C)[nH]n1)c1ccc(-c2ccccc2)cc1 | -9.2 | -1.5 | 10.7 | 7.5 | -3.3 | / | i | -81.6
Cc1ccccc1-c1nc(CS(=O)(=O)CC(=O)NC2CCCCC2C)c(C)o1 (centres undefined) | -0.6 | 3.5 | -0.6 | -1.3 | 11.7 | 6.8 | i | 10.8
C=C(C)CNC(=S)Nc1cccc(N)n1 | -0.9 | -3.2 | 3.2 | 0.1 | / | / | i | -5.7
NS(=O)(=O)c1ccc(NC(=O)COC(=O)CCNC(=O)NC23CC4CC(CC(C4)C2)C3)cc1 | -11.6 | 37.6 | -3.3 | -1.2 | -16.3 | -8.5 | i | -9.5
